Assay outcomes (PubChem)
NPYLR7 ag: mosquito NPYLR7 agonism; HEK293T NPYLR7/Galpha15, GCaMP6s calcium fluorescence; 270,000 compounds, 0.15% hits; activation, % at 10 µM; AID 1259423; in the data active means activation above about 40%;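 further: 0% = vehicle and 100% = reference agonist at the receptor; some compounds past the cut are filed as inactive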
NPYLR7 ag max-min: recorded beside NPYLR7 ag, whose call it bears; activation, %; measured here: Max-Min RFU normalised activation; some inactives read as strong as hits;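 span of the calcium signal over five minutes; 0% = vehicle and 100% = native peptide agonist; compound fluorescence can raise it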
* marks the source's active call; other numbers are inactive results; & = joins results of further samples.

1. CC(=O)Nc1ccc(NC(=O)CSc2ccc(-c3sc(-c4cccnc4)nc3C)nn2)cc1
2. O=[N+]([O-])c1ccc(Cl)c2cccnc12
3. O=C(CCN1CCSC1=O)Nc1ccccc1C(=O)NCC(F)(F)F
4. CCn1c(C)c(C(=O)CN(CCN2CCOCC2)S(=O)(=O)c2cccc(C(F)(F)F)c2)c(C)c1C(=O)OC
5. Cc1cccnc1NC(=O)CCc1c(C)nn(-c2nc(C)c(C)c(=O)[nH]2)c1C
6. COc1cc(CO)c(-c2c[nH][nH]c2=O)cc1OC
Compound | 1 | 2 | 3 | 4 | 5 | 6
NPYLR7 ag | 1.4 | 0.4 | 2.7 | 6.2 | 12.4 | 3.9
NPYLR7 ag max-min | 1.5 | 3.1 | -3.5 | 12.8 | 3.7 | 1.3

7. CC(=O)[C@@H]1C[C@H](CC(=O)N2CCN(c3ccccc3Cl)CC2)C1(C)C
8. CC(C)Cn1nc(C(=O)O)c2c1CCN(C(=O)C(C)N1CCN(C)CC1)C2 (stereo not drawn)
9. COC(=O)C1=C(C)OC(=N)C(C#N)C1c1ccccc1I (stereo not drawn)
10. COc1ccc2[nH]cc(C3CCN(C(=O)c4cc(-c5ccc(Cl)cc5)oc4C)CC3)c2c1
11. Cc1ccccc1-c1nc2c(C)cccn2c1NC1CCCCC1
12. O=C(CSc1n[nH]c(=O)[nH]c1=O)N1CCOCC1
Compound | 7 | 8 | 9 | 10 | 11 | 12
NPYLR7 ag | 0.4 | -4.8 | -12.8 | 3.8 | 1.2 | -1.5
NPYLR7 ag max-min | 0.5 | -6.6 | -17.1 | 5.1 | 0.8 | -3.6

13. C[C@@H](NC(=O)[C@@H]1C[C@@H](NS(=O)(=O)c2cccs2)CCN1C(=O)CSCC(=O)O)C(N)=O
14. Cc1[nH]nc2c1C(c1cccc([N+](=O)[O-])c1)CC(=O)N2 (stereo not drawn)
15. COc1ccc(-c2c(C#N)c(N)nc(OC)c2C#N)cc1
16. CSc1ccc(CN(Cc2ccco2)C(=O)c2ccc(C)c([N+](=O)[O-])c2)cc1
17. COc1cc(OC)cc(C(=O)N2CCSC2c2cc(OC)ccc2OC)c1 (stereo not drawn)
18. CCN(CCOc1cccc(C)c1)C(=O)c1cccc(C(C)=O)c1
Compound | 13 | 14 | 15 | 16 | 17 | 18
NPYLR7 ag | -9.9 | 7.5 | -3.4 | -0.7 | 1.1 | 11.4
NPYLR7 ag max-min | -13.6 | 6.5 | -5.4 | -5.5 | 3.5 | 8.4

19. O=C(Nc1ccc2c(c1)CN(C(=O)C#Cc1ccccc1)CC2)C1CCCO1 (stereo not drawn)
20. Cn1c(C(=O)NC2CCCC2)cc2sc(Cl)cc21
21. CSc1ncc(CN2CCN(Cc3ccccc3F)C(CCO)C2)cn1 (stereo not drawn)
22. CCOC(=O)Cn1c(N2CCCCC2)nc2c1c(=O)[nH]c(=O)n2C
23. Cc1ccc(CN(C)C(=O)c2onc3ccccc23)o1
24. Cc1ccc(S(=O)(=O)NCCC(=O)N(C)CCN2CCOC2=O)c(C)c1
Compound | 19 | 20 | 21 | 22 | 23 | 24
NPYLR7 ag | -0.9 | 3.9 | 9.7 | -3.2 | 13.6 | 1.1
NPYLR7 ag max-min | -4.5 | 6.6 | 1.6 | -3.9 | 1.7 | -3.8

Record cards, as listed above. Values in the order: NPYLR7 ag, NPYLR7 ag max-min
CCn1c(C)c(C(=O)CN(CCN2CCOCC2)S(=O)(=O)c2cccc(C(F)(F)F)c2)c(C)c1C(=O)OC in the list: 6.2, 12.8
Cc1[nH]nc2c1C(c1cccc([N+](=O)[O-])c1)CC(=O)N2 (stereo not drawn) in the list: 7.5, 6.5
COc1ccc(-c2c(C#N)c(N)nc(OC)c2C#N)cc1 in the list: -3.4, -5.4
Cc1ccc(CN(C)C(=O)c2onc3ccccc23)o1 in the list: 13.6, 1.7

(cont.)
25. COc1ccccc1-n1c(SCc2nc(C(=O)NCCc3ccccn3)cs2)nnc1-c1ccncc1
26. Cc1cccc(CN2CCN(S(=O)(=O)NCc3ccccc3)C(C)C2=O)c1 (stereo not drawn)
27. CCOC(=O)C1CSC2(C(=O)Nc3ccccc32)N1C(=O)c1ccc(OC)cc1 (stereo not drawn)
28. COc1ccccc1-c1cc2ccc(OC(C)=O)cc2oc1=O
29. Cn1cc(-c2nc(-c3ccc4c(c3)CCC4)cs2)cn1
30. Cc1nc2cc(F)ccc2cc1C(=O)NC1(C(=O)O)CCCCC1
Compound | 25 | 26 | 27 | 28 | 29 | 30
NPYLR7 ag | -1.7 | 7.7 | 5.5 | -1.8 | 7.0 | -19.6
NPYLR7 ag max-min | 0.6 | 2.9 | 4.0 | -8.1 | 3.9 | -21.6

31. CCC(C)N(Cc1cccc(OS(=O)(=O)CC)c1)C(=O)c1cccc(OC)c1 (stereo not drawn)
32. CC(=O)c1sc2nc(CN3CCN(C(=O)C4CCCO4)CC3)[nH]c(=O)c2c1C (stereo not drawn)
33. CCCC(C)NC(=O)C1CCCN(C(=O)C2CC23CCOCC3)C1 (stereo not drawn)
34. CC1NC(=S)N(C(C)c2cccnc2)C1=O (stereo not drawn)
35. COCCN1CCN(C(=O)c2ccc(-c3cc(-c4cccc(C(F)(F)F)c4)n[nH]3)cc2)CC1
36. COc1cccc(Cn2ccnc2CN(C(=O)c2cccc(F)c2)C2CCCCC2)c1
Compound | 31 | 32 | 33 | 34 | 35 | 36
NPYLR7 ag | -0.4 | 10.4&0.8 | 1.9 | -1.6 | 5.3 | 2.4
NPYLR7 ag max-min | 7.4 | 8.9&-3.0 | 1.0 | -3.6 | -2.8 | 12.5

37. CCCCCCCC(=O)N1CCN(c2nc(C)nc(C)c2Cc2ccc(F)cc2)CC1
38. Cc1oc(C(C)C)cc1C(=O)N1CCNCC1C(=O)NC1CC1 (stereo not drawn)
39. CCCCN(CC(=O)N(CCc1c[nH]c2ccccc12)Cc1ccccc1)S(=O)(=O)c1cccc2cccnc12
40. c1ccc(-c2nnc(C3CC3)nc2-c2ccccc2)cc1
41. CC(NC(=O)c1ccc(=O)n(C)n1)c1ccccc1F (stereo not drawn)
42. CONC(=O)c1nn(-c2cccc(C(C)C)c2)cc1O
Compound | 37 | 38 | 39 | 40 | 41 | 42
NPYLR7 ag | -13.8 | -0.1 | 6.4 | 4.9 | -2.2 | 1.5
NPYLR7 ag max-min | -8.9 | -5.0 | 5.3 | -1.1 | 1.2 | -1.1

Results in sequence from above:
Compounds 37–41 in NPYLR7 ag max-min read -8.9, -5.0, 5.3, -1.1, 1.2
Compounds 37–41 in NPYLR7 ag read -13.8, -0.1, 6.4, 4.9, -2.2

Returning to the listing, repeating the 4 entries before the break.
39. CCCCN(CC(=O)N(CCc1c[nH]c2ccccc12)Cc1ccccc1)S(=O)(=O)c1cccc2cccnc12
40. c1ccc(-c2nnc(C3CC3)nc2-c2ccccc2)cc1
41. CC(NC(=O)c1ccc(=O)n(C)n1)c1ccccc1F (stereo not drawn)
42. CONC(=O)c1nn(-c2cccc(C(C)C)c2)cc1O
43. CC1C(=O)N(c2ccc(Cl)cc2Cl)CCN1C(=O)c1ccc(Br)cc1 (stereo not drawn)
44. Fc1ccc(C(NCc2ccncc2)C2CCC2)cc1 (stereo not drawn)
45. COC(=O)C1=NN(c2ccc(OC)cc2)C2C(=O)N(c3ccc(Br)cc3)C(=O)C12 (stereo not drawn)
46. Cn1nc(C(C)(C)C)cc1N
47. Cc1ccccc1N1C(=O)CC(N2CCN(c3ncccn3)CC2)C1=O (stereo not drawn)
48. Cc1ccc(-c2cnc(CCC(=O)OC(C)c3nc4ccccc4c(=O)[nH]3)o2)cc1 (stereo not drawn)
Compound | 39 | 40 | 41 | 42 | 43 | 44 | 45 | 46 | 47 | 48
NPYLR7 ag | 6.4 | 4.9 | -2.2 | 1.5 | 1.5 | -7.8 | 9.4 | 3.2 | -6.3 | -0.1
NPYLR7 ag max-min | 5.3 | -1.1 | 1.2 | -1.1 | 4.0 | -6.0 | 5.2 | 1.9 | -7.9 | 8.8

49. CCOC(=O)NC1CCCN(C(=O)C2(c3ccccc3)CC2)C1 (stereo not drawn)
50. S=C(Nc1cccc(I)c1)NC1CCCCC1
51. Cc1cc(C)cc(N2C(=O)CSC2c2cccc(NC(=O)c3cccc(Br)c3)c2)c1 (stereo not drawn)
52. O=C(COc1ncnc2sccc12)NCC(F)(F)F
53. O=C(Nc1ccc(CNS(=O)(=O)c2c(Cl)cccc2Cl)cc1)C1CC1
54. CC(C)(C)NC(=O)NC(=O)CN1CC2CC3CC(C2)CC1C3
Compound | 49 | 50 | 51 | 52 | 53 | 54
NPYLR7 ag | 1.0 | 12.8 | 12.5 | -0.9 | 2.6 | 0.7
NPYLR7 ag max-min | 0.6 | 15.2 | 14.9 | -3.1 | 2.0 | -0.3

55. Nc1nc(SCC(=O)N2CCCCCC2)[nH]c(=O)c1NC(=O)c1ccc(Cl)cc1
56. CN(C)S(=O)(=O)c1ccc(S(=O)(=O)NCCc2ccc(S(N)(=O)=O)cc2)cc1
57. O=C(c1cccs1)N1N=C(c2cccs2)CC1c1ccc([N+](=O)[O-])cc1O (stereo not drawn)
58. Cc1ccc(OCCCN(C)C(=O)C2CCN(C)C2)cc1C (stereo not drawn)
59. O=C(O)c1ccc(F)cc1-c1ccc(Cl)c(Cl)c1
60. Cc1ccccc1OC(C)CNC(=O)c1ccc(C(N)=O)cc1 (stereo not drawn)
Compound | 55 | 56 | 57 | 58 | 59 | 60
NPYLR7 ag | -9.1 | -6.6 | -1.5 | -3.2 | 6.0 | 0.8
NPYLR7 ag max-min | -4.9 | -6.5 | -2.9 | -7.3 | 5.1 | -1.3

61. CCc1ccc(N2C(=O)C3N=NN(Cc4ccccc4C)C3C2=O)cc1 (stereo not drawn)
62. Cc1cc(=O)n2nc(CNC(c3ccccc3)c3cccs3)sc2n1 (stereo not drawn)
63. Cc1ccc(OCCN(C)C(=O)COc2ccc3ccc(=O)oc3c2)cc1
64. COc1ccc(C2CC(c3cccs3)=NN2C(=O)COC(=O)c2ccccc2Cl)cc1OC (stereo not drawn)
65. Cc1ccc(C(=O)N=c2sc(C)c(C)n2C(C(=O)O)c2ccccc2)cc1 (stereo not drawn)
66. Cn1c(N)c(-c2nc3ccccc3[nH]2)sc1=S
Compound | 61 | 62 | 63 | 64 | 65 | 66
NPYLR7 ag | -5.8 | 11.2 | 5.7 | 0.0 | 18.1 | 2.0
NPYLR7 ag max-min | -11.2 | 7.4 | 2.8 | -5.0 | 9.4 | -0.2

67. O=C(c1cc(Br)c[nH]1)N1CCC(Nc2ccc(F)cc2)CC1
68. CCc1nccn1CC(=O)N1CCN2CCNC(=O)C2C1 (stereo not drawn)
69. CC(C(=O)Nc1ccccc1Cl)N1CCCC1c1ccsc1 (stereo not drawn)
70. COc1ccccc1-c1csc2nc(CN(Cc3ccccc3)CC(O)COC(C)C)[nH]c(=O)c12 (stereo not drawn)
71. Cc1cc(C)c(C#N)c(SCC(=O)N(C)Cc2sccc2C)n1
72. CCS(=O)(=O)Nc1ccc(NC(=O)C2CCCN2Cc2ccc(F)cc2)cc1C (stereo not drawn)
Compound | 67 | 68 | 69 | 70 | 71 | 72
NPYLR7 ag | 1.5 | -1.8 | 3.8 | -1.5 | 12.5 | 2.1
NPYLR7 ag max-min | -4.2 | -4.6 | 3.1 | 10.1 | 12.5 | 0.3

73. COc1cccc(C)c1C(=O)N1CCOC(c2ccc(Cl)c(Cl)c2)C1 (stereo not drawn)
74. Cc1nc(-n2nc(-c3ccco3)cc2NC(=O)c2ccco2)[nH]c(=O)c1C
75. CCOC(=O)C1=C(CSc2nccc(C(F)(F)F)n2)NC(=O)NC1c1cnn(CC)c1 (stereo not drawn)
76. CCOCCCNc1nc(Nc2ccccc2)c2cnn(-c3ccccc3)c2n1
77. Cc1ccccc1NC(=O)Cn1nc(C(=O)Nc2ccccc2)ccc1=O
78. CCCCOCC(O)CN(Cc1c(C)nn(-c2ccccc2)c1Oc1cccc(F)c1)CC(C)C (stereo not drawn)
Compound | 73 | 74 | 75 | 76 | 77 | 78
NPYLR7 ag | 21.8 | -1.6 | -3.6 | 1.0 | 5.4 | -3.1
NPYLR7 ag max-min | 8.7 | -4.0 | -5.8 | -1.0 | 2.7 | 2.0

79. CC(CN(C)c1ccccc1)NC(=O)CCNc1ncccn1 (stereo not drawn)
80. CCOC(=O)CNC(=O)N1CCCC(Nc2ccc(C(C)C)cc2)C1 (stereo not drawn)
81. Cc1ccc(=O)n(CC(=O)N2CCCC(Nc3ccc(F)c(F)c3)C2)n1 (stereo not drawn)
82. COc1ccc(OC)c(C(C)NC(=O)c2nn(-c3ccc(F)cc3)c3c2CCC3)c1 (stereo not drawn)
83. CCOC(=O)c1nn(CCc2scnc2C)c2c1CN(C(=O)c1scc3c1CCCC3)CC2
84. CCOCCOC(=O)C1=C(C)NC2=C(C(=O)CC(c3ccccc3)C2)C1c1ccc(OC)cc1OC (stereo not drawn)
Compound | 79 | 80 | 81 | 82 | 83 | 84
NPYLR7 ag | 15.6 | 0.0 | 12.9 | 10.5 | -2.8 | 2.0
NPYLR7 ag max-min | 12.4 | -5.7 | 9.4 | 10.1 | -5.9 | 6.1

85. O=C(Nc1ccc(Br)cc1)c1cccc(S(=O)(=O)NCc2ccccc2)c1
86. CCCCN(C)c1c(CC)nc2ccc(C(=O)NCCc3c[nH]c4ccccc34)cn12
87. Cc1nc(NC(N)=NS(=O)(=O)c2ccc([N+](=O)[O-])cc2)nc2ccccc12
88. N=c1oc2ccc([N+](=O)[O-])cc2cc1C(=O)Nc1cccc(C(F)(F)F)c1
89. CC(C)C(=O)Nc1ccc(SCc2ccccc2)nn1
Compound | 85 | 86 | 87 | 88 | 89
NPYLR7 ag | -3.3 | 8.4 | -5.8 | -1.9 | -2.0
NPYLR7 ag max-min | -10.8 | -4.3 | -11.8 | -8.6 | -3.4

An excerpt. The share of hits here may be higher or lower than overall.
